From PubChem
Rango dissoc inh = prevents RanGTP from dissociating the Rango-importin beta complex; O95149+P62826; Biochemical FRET Rango-importin beta, RanGTP-induced dissociation; Potency, µM (titrated, usually from 46.1 µM), inactives show top-dose activity change, negative = inhibition; actives 0.071% (n = 340,000); AID 540253; active means falling FRET ratio curve, often poorly fitted, with flat reads before Ran was added; inconclusive means other falling curves, or compound fluorescence or quenching; inactive means flat or rising ratio curve;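 further: potency means the concentration at half of the fitted maximal effect; % of control where 0% means no effect; nearly all actives have a fitted effect of over 45% in size; -100% = wells without RanGTP and RCC1; the record marks most hits as doubtful in a second field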
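Rango (0.1 uM)–importin beta (0.25 uM) complex; RanGTP-RCC1 trigger; 45 min RT; CFP/YFP FRET read.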
miR-21 reporter = miR-21 reporter, rising signal | HeLa miR-21 FLuc reporter, luciferase, 48 h | Potency, µM (series often up to 38.3 µM), without a hit: at the highest dose reporter change, positive = more light | 340,000 tested, under 10 active | AID 2288; active = well fitted rising curve with a large enough effect; inconclusive = small, poorly fitted or top-dose-only effect; inactive = no such curve, though single readings can be large or run the other way;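 further: % of control where 0% means no effect; miR-21 action dims this reporter so a rising signal means less miR-21 action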
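HeLa miR-21-FLuc reporter line, endogenous miR-21; 2000 cells/well in DMEM/10% FBS; compound titration up to ~40uM final, 48 h, 37 degree Celsius; luciferase detection reagent, 15 min lysis, CCD luminescence.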
Rango-impB inh = Rango-importin beta binding inhibition; Q14974; Rango CFP/YFP FRET sensor + importin beta, 45 min; Potency, µM (doses to about 92.2 µM), inactives show at the highest dose inhibition of complex formation; actives 0.031% (n = 340,000); active = rising FRET ratio curve, often small or poorly fitted; inconclusive = mostly compound fluorescence or quenching in the first reads; inactive = flat curves in all reads;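 further: potency means the concentration at half of the fitted maximal effect; 0% = DMSO wells and 100% = buffer wells lacking importin beta; nearly all actives have a fitted effect of over 15% in size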
Target sequence (Q14974 whole entry, looked up): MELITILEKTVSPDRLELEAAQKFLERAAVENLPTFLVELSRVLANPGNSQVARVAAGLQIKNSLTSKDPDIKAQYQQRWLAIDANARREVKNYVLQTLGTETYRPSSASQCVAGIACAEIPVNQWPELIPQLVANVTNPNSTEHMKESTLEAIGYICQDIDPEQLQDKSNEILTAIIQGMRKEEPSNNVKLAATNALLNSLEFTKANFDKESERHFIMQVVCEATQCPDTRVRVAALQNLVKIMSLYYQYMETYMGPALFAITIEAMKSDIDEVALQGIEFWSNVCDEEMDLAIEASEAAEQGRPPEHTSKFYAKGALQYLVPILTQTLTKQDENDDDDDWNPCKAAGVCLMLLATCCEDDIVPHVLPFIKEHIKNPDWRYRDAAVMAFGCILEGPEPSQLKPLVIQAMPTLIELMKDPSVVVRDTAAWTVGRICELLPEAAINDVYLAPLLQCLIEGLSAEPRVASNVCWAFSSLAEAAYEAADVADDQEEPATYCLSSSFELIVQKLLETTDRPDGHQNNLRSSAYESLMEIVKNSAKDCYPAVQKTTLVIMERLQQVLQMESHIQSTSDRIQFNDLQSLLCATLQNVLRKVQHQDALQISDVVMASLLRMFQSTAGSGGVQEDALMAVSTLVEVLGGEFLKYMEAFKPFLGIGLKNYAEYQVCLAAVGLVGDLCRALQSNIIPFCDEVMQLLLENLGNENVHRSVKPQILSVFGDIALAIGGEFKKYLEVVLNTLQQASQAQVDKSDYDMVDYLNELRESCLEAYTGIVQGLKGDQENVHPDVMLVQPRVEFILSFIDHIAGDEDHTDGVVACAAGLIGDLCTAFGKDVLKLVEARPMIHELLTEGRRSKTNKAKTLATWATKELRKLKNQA
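Inhibition scored from the CFP 486 nm/YFP 530 nm FRET ratio 45 min after adding 0.125 microM importin beta to 50 nM Rango biosensor preincubated 5 min with compound (room temperature, PBS with DTT, Tween-20, BSA). No-importin wells as positive control.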
GLA inh pH 4.5 = blocks human alpha-galactosidase A at pH 4.5. purified enzyme, 4-MU-alpha-Gal fluorescence, pH 4.5. activity change, negative = inhibition, % at 105 µM. 230,000 tested, under 10 active; inconclusive = small, poorly fitted or top-dose-only inhibition, or a rising curve; inactive = flat fitted curve, though single readings scatter; no compound was filed as active;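 further: 0% = full activity with enzyme and -100% = basal without enzyme; dose as in the result columns while the protocol names 77 µM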
An asterisk follows results filed as active; ? = inconclusive; . = not tested or not shown; & = joins results of further samples; [ ] = remark or other dose. Some of the compounds tested; count on the stated rates, not on these rows.

SMILES	Rango dissoc inh	miR-21 reporter	Rango-impB inh	GLA inh pH 4.5
CC(C)Oc1ccc(S(=O)(=O)N2CCOCC2)cc1NC(=O)C1CSC2(C)CCC(=O)N12 (stereo not given)	3%	.	-2.9%	.
NC(=O)c1ccc[n+](CC(=O)c2ccccc2)c1	-17%	-1%	3.2%	-1
Cc1c(C(=O)Nc2nc(-c3ccccn3)cs2)oc2ccccc12	?	.	?	.
NC(=O)C1CCN(C(=O)COc2cccc3ccccc23)CC1	9%	-5%	1.9%	3
COc1ccc(S(=O)(=O)N(C)c2ccc(C(=O)NCc3ccccn3)cc2)cc1	9%	13%	-2.3%	.
COC(=O)c1c(C)[nH]c(C)c1-c1ccc([N+](=O)[O-])cc1	2%	3%	0.4%	-11
CCn1nnnc1SCC(=O)N1CCCCC1	-12%	.	0.6%	.
COc1ccc(-n2c(Cn3nnc4ccccc43)nnc2SCC(=O)O)cc1	-3%	-1%	3.4%	1
CC(C)(C)C1=NN=C2c3ccccc3C(=O)C21 (stereo not given)	13%	-24%	-0.4%	-3
CCCn1nnnc1NC(=O)c1cc(Cl)ccc1Cl	-14%	-7%	-2.2%	-1
CCOc1ccc(OCCC(=O)Nc2ccc3c(c2)OCO3)cc1	7%	.	0.3%	.
CN(C)S(=O)(=O)c1ccc2c(c1)nc(CCC(=O)NCc1ccc(Cl)cc1)n2C	-23%	-1%	?	3
Cn1nc(C(F)(F)F)c(-c2ccc(Br)cc2)c1NC(=O)c1nccnc1C(=O)O	-16%	-8%	0.7%	14
CC1CCc2c(sc3ncn(CCO)c(=O)c23)C1 (stereo not given)	17%	-51%	2.2%	2
CS(=O)(=O)N1CCC(C(=O)Nc2cccc(Cl)c2Cl)CC1	-6%	-2%	-5.6%	.
O=C(CN1C(=O)C2C3C=CC(C4CC34)C2C1=O)Nc1cnc2ccccc2c1 (stereo not given)	27%	-14%	-2.2%	3
O=C(O)/C=C\C(=O)Nc1ccc(F)c(F)c1F	-2%	0%	0.6%	-13
O=C1[C@H](Cc2ccccc2)NCCCC[C@@H](c2ccco2)N1Cc1ccccc1	-11%	.	-2.1%	.
Cc1c(Cl)cccc1NC(=O)c1cc(-c2ccco2)on1	34%	-39%	-1.2%	.
COc1ccc(Nc2nnc(SCC(=O)/C=C3/N(C)c4ccccc4C3(C)C)s2)cc1	9%	?	0.4%	-22
Cn1c(CO)cnc1SCc1c(Cl)cccc1Cl	1%	-7%	-2.3%	5
CC1(C(=O)NCc2ccccc2)Oc2ccccc2NC1=O (stereo not given)	2%	-4%	1.6%	4
Cn1c2ccccc2c(=O)c2ccc(C#CC3(N)CCCCC3)cc21	?	-17%	?	.
COc1cc(/C=C2/SC(=O)NC2=O)ccc1Oc1ccc([N+](=O)[O-])cc1[N+](=O)[O-]	0%	-9%	3.1%	-5

A second format for part of the listing above:
Below each compound – Rango dissoc inh	miR-21 reporter	Rango-impB inh	GLA inh pH 4.5
O=C1[C@H](Cc2ccccc2)NCCCC[C@@H](c2ccco2)N1Cc1ccccc1
  -11%	.	-2.1%	.
Cc1c(Cl)cccc1NC(=O)c1cc(-c2ccco2)on1
  34%	-39%	-1.2%	.
COc1ccc(Nc2nnc(SCC(=O)/C=C3/N(C)c4ccccc4C3(C)C)s2)cc1
  9%	?	0.4%	-22

The list goes on:
SMILES	Rango dissoc inh	miR-21 reporter	Rango-impB inh	GLA inh pH 4.5
COc1ccc(S(=O)(=O)N2CCOCC2)cc1C(=O)NCC(c1ccccc1)c1ccccc1	3%	.	1.0%	.
COC(=O)c1cc(Br)c(=O)n(-c2ccc(C(C)=O)cc2)c1	.	-2%	.	3
Cc1ccc2nc3c(cc(C(=O)NCC4CCCO4)c(=N)n3CCCOC(C)C)c(=O)n2c1 (stereo not given)	?	-3%	?	7
CN(C)CCOC(=O)C1(c2ccccc2)CCOCC1	11%&2%	-11%&-4%	-1.3%&-3.8%	3&9
CC(=O)Nc1ccc(OS(=O)(=O)c2ccc([N+](=O)[O-])cc2)cc1	-10%	13%	-1.2%	3
CCC(CC)c1nnc(NC(=O)C2=NNC(=O)CC2)s1	-1%	1%	-1.9%	0
N#Cc1ccc(/C=C/C(=O)c2cccnc2)cc1	-3%	?	-1.6%	-5
Cc1c(O)ccc2c(CC(=O)N[C@@H](Cc3ccccc3)C(=O)O)cc(=O)oc12	?	-3%	0.0%	.
CSc1ccccc1NC(=O)CN1CCN(S(=O)(=O)c2ccccc2[N+](=O)[O-])CC1	0%	.	-3.4%	.
CCOCCCn1c(SCC(=O)NC2CCCC2)nc2ccccc2c1=O	10%	3%	-1.8%	.
CC(O)CNc1cc(N)c([N+](=O)[O-])cc1[N+](=O)[O-] (stereo not given)	7%	-1%	-0.2%	1
COCCCNC(=O)C1CCC(CNS(=O)(=O)c2ccc(OC)cc2)CC1 (stereo not given)	20%	0%&-2%	-0.3%	2[21.1 µM]
CCN(CC(O)c1cccc(O)c1)C(=O)C12CC3CC(CC(C3)C1)C2 (stereo not given)	-16%	-14%	1.3%	.
Cc1ccc(C2(C)NC(=O)N(CC(=O)Nc3ccc(Cl)c(S(=O)(=O)N4CCCCC4)c3)C2=O)cc1 (stereo not given)	-19%	.	-4.0%	.
Cc1cc(C)c2c(CN3CCC(C)CC3)cc(=O)oc2c1	7%	-47%	-3.5%	.
O=C(O)c1cnn(-c2ccccc2)c1-n1cccc1	-10%	-5%	-0.9%	4
CCCCCn1c(=O)[nH]c2cc(C(=O)NCCCN(C)Cc3ccccc3)ccc2c1=O	0%	0%	0.0%	7
COC(C(=O)NCc1ccccc1C)c1ccccc1 (stereo not given)	31%	0%	0.8%	-1
Cc1ccc(NC(=O)/C(=C/c2ccc([N+](=O)[O-])cc2)NC(=O)c2ccccc2)cc1	-7%	2%	0.2%	4
COc1cccc(-c2c(C(=O)N/N=C/c3sccc3C)nnn2-c2nonc2N)c1	6%	4%	0.6%	.
CCOC(=O)c1[nH]c2ccc(C)cc2c1N	-10%	-54%	-2.1%	4
CCC(=O)OCC(=O)c1cc(C)n(-c2ccc(Br)cc2)c1C	10%	1%	1.4%	2
CCC(CC)C(=O)NCCc1cc2ccc(C)cc2[nH]c1=O	23%	-6%	-3.5%	6
COc1ccc(CCNC(=O)CCCOc2cccc(C)c2C)cc1OC	1%	0%	0.3%	1
Cc1cc(=O)[nH]c(/N=C(\N)Nc2ccc(SC(F)F)cc2)n1	-4%	0%	4.3%	-9
O=C(NCCN1CCOCC1)c1cc(Sc2cccc(Cl)c2)nc2ccccc12	2%	1%	-1.4%	1
Cc1cc(C)c2sc(N(CCCN(C)C)C(=O)c3ccc(Br)s3)nc2c1	-25%	-1%	-1.7%	?
Cc1ccc(C)c(NC(=O)CSc2nnc(-c3ccccc3)o2)c1	29%	-7%	4.6%	4
COC(=O)c1ccc(COc2ccc(/C=N/Nc3nc(C)cc(=O)[nH]3)cc2)cc1	38%	-36%	-1.5%	?
CC(=O)Nc1ccc(S(=O)(=O)NCc2nc(-c3ccccc3Cl)no2)cc1	1%	-1%	-0.1%	.
CCOC(=O)c1cc(C(C)(C)C)oc1CNC(=O)c1c(C)oc2c1CCCC2	-7%	-5%	0.9%	0
Cc1c(C(=O)OCC(=O)c2c(N)n(CC(C)C)c(=O)n(C)c2=O)oc2ccccc12	-11%	-3%	0.1%	3
CCCCS(=O)(=O)c1sc2nc3c(cc2c1N)CCCC3	-5%	-12%	-5.4%	-3
Cc1ccc(C(=S)NCS(=O)(=O)c2ccc(C)cc2)cc1	7%	-1%	-2.4%	2
Cc1ccc2[nH]cc(CCNC(=O)c3ccco3)c2c1	19%	-12%	-1.1%	.
COc1ccccc1C(=O)N/C(=C\c1cn(C)c2ccccc12)C(=O)N1CCCC1	0%	-15%	6.0%	.
CCOc1ccc(NC(=O)CN(C)C(=O)c2cn(-c3ccc(C)cc3)nc2-c2cccc(OC)c2)cc1OCC	-4%	.	-1.0%	.
COc1ccc(NC(=O)c2ccco2)c(NC(=O)Cc2cccs2)c1	8%	-2%	2.6%	2
O=C1CCc2cc(S(=O)(=O)Nc3ccccc3)cc3c2N1CC3	9%	.	1.8%	.
CC(C)(C)OC(=O)N1CCC[C@H]1C(=O)Nc1ccc(S(=O)(=O)C(F)F)cc1	0%	-2%	1.0%	.
c1ccc(C(c2ccccc2)c2noc(CN3CCC(c4ccncc4)CC3)n2)cc1	13%	2%	0.6%	-2
CCOc1ccc(/C(O)=C2/C(=O)C(=O)N(CC3CCCO3)C2c2cccs2)cc1 (stereo not given)	20%	0%	0.1%	9
O=C(Nc1ccc(Cc2ccncc2)cc1)c1ccc(S(=O)(=O)N2CCCC2)cc1	11%	26%	1.4%	-11
CC12CCC(=O)C=C1CCC1C2CCC2(C)C(c3csc(N)n3)CCC12 (stereo not given)	-7%	.	-0.6%	.
Cc1nc(-c2ccccc2)cc(N2CCCC2)n1	11%	-22%	0.2%	-14
Cc1ccc(C(=O)OC(C)C(=O)c2cc(C)c(C)cc2C)o1 (stereo not given)	-10%	-9%	8.8%	.
O=[N+]([O-])c1ccc(N/N=C/c2ccc(O)c(O)c2O)c(S(=O)(=O)N2CCOCC2)c1	3%	-2%	4.3%	-1
O=C(c1ccc(Br)cc1)c1cc(-c2ccccn2)c(N2CCOCC2)s1	?	-6%	?	-7
CCn1c(COc2ccccc2OC)nc2ccccc21	-13%	-38%	1.8%	.
COc1cc2c(cc1OC)C(c1cc(Br)c(OC)c(OC)c1)CC(=O)N2 (stereo not given)	15%	-16%	1.5%	.
COc1ccc(/C=N/Nc2nc(N3CCCC3)nc(N3CCCC3)n2)cc1	-4%	-4%	-1.0%	-8
CNC(=O)c1nn(-c2ccc(Cl)cc2)ccc1=O	-25%	-9%	0.2%	6
COc1ccc(N2CCN(C3CC(=O)N(Cc4ccccc4)C3=O)CC2)cc1 (stereo not given)	-8%	-3%	-1.8%	-3
CC(=O)Nc1ccc(OCc2cccc3ccccc23)cc1	5%	13%	7.1%	.
Cn1c(=O)c2c(ncn2CC(COCc2ccccc2Cl)OCc2ccccc2Cl)n(C)c1=O (stereo not given)	2%	17%	-0.6%	2
COc1ccc(-n2cc(C(=O)c3ccc4ccccc4c3O)cn2)cc1	-24%	3%	-0.4%	11
CCOC(=O)c1cnc(-n2nc(C)cc2C)nc1N(CC)CC	10%	22%	-4.0%	-1
CCN(CC)C(=O)C1CCCN(C(=O)c2cc(COc3cccc(OC)c3)on2)C1 (stereo not given)	-1%	-7%	-0.5%	.
CCOc1ccccc1NC(=O)COC(=O)Cc1ccsc1	-1%	.	0.1%	.
CS(=O)(=O)c1ccc2c(c1)sc1nc(=O)c(/C=C3/C=CC(=O)C(O)=C3)c(N)n12	?	-64%	?	-21

New compounds follow
SMILES	Rango dissoc inh	miR-21 reporter	Rango-impB inh	GLA inh pH 4.5
Cc1nn(C)c(C)c1S(=O)(=O)N1CCC(CO)(CC2CCCCO2)CC1 (stereo not given)	-11%	-1%	-2.3%	-10
COc1ccc(CN(CC(=O)NCc2ccc(F)cc2)C(=O)CCC(=O)Nc2nccs2)cc1	19%	-4%	?	.
Cc1ccc(/C=N/n2nnnc2N)o1	?	8%	-1.8%	8
CCCC(C)NC(=O)c1cc(S(=O)(=O)N2CCCCCC2)ccc1OC (stereo not given)	-8%	.	0.4%	.
O=C(COc1ccc([N+](=O)[O-])cc1)Nc1ccccc1N1CCCC1	-22%	-2%	-2.1%	6
O=C(Nc1ccccc1-c1nc2ccccc2s1)c1cccnc1Cl	7%	1%	-1.3%	6
CC(=O)c1ccccc1NC(=O)COC(=O)c1c(C)nn(-c2ccccc2)c1C	0%	.	-0.5%	.
C/C(=N\NC(=O)CSc1nc(C)[nH]c1[N+](=O)[O-])c1ccc(F)cc1	-3%	-1%	2.2%	-10

Results in GLA inh pH 4.5, miR-21 reporter and Rango dissoc inh, for some of the entries so far:
smiles | GLA inh pH 4.5 | miR-21 reporter | Rango dissoc inh
CCCC(C)NC(=O)c1cc(S(=O)(=O)N2CCCCCC2)ccc1OC (stereo not given) | . | . | -8%
O=C(COc1ccc([N+](=O)[O-])cc1)Nc1ccccc1N1CCCC1 | 6 | -2% | -22%
O=C(Nc1ccccc1-c1nc2ccccc2s1)c1cccnc1Cl | 6 | 1% | 7%
CC(=O)c1ccccc1NC(=O)COC(=O)c1c(C)nn(-c2ccccc2)c1C | . | . | 0%
C/C(=N\NC(=O)CSc1nc(C)[nH]c1[N+](=O)[O-])c1ccc(F)cc1 | -10 | -1% | -3%
